# Screening results as filed in PubChem.
# Mtb growth: Mycobacterium tuberculosis H37Rv growth inhibition, cell based, confirmatory dose response (AID 1949); most inactive calls were filed without a number and no value below 0 was filed; one-dose inhibition, % at 10 µg/mL; IC50 in µg/mL for titrated hits; 1.6% of 100,000 active;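 active = confirmed in a dose series; inconclusive = about 50% or more but not retested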;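 note: bacteria grown 7 days with compound before Alamar blue readout; 0% = untreated bacteria and 100% = reference antibiotic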
# Starred values were filed as active, the others as inactive; i = inactive; ? = inconclusive.
SMILES,Mtb growth
Cc1ccc(C(=O)/C=C/c2cn(Cc3ccccc3)c3ccccc23)cc1,2.6%
CCOC(=O)Cc1csc(NC(=O)c2sc3ccccc3c2Cl)n1,10.8%
COc1ccc(C(=O)Nc2c(F)cccc2F)cc1OC,i
CN1C(=O)c2ccc(NC(=S)NC(=O)Cc3ccc(Cl)cc3)cc2C1=O,i
O=C(C(Sc1ccccc1)c1ccccc1)N1CCN(c2ccccc2)CC1 (stereo not drawn),i
S=c1[nH]nc(C23CC4CC(CC(C4)C2)C3)n1CCCN1CCOCC1,i
Cc1ccc(C(=O)Nc2ccc(Oc3ccc(NC(=O)c4ccc(C)o4)cc3)cc2)o1,i
COc1ccc(Cl)cc1/C=C1/C(=O)NN(c2ccc(F)cc2)C1=O,32.4%
COc1ccc(NC(=O)c2ccco2)cc1NC(=O)c1cc(OC)c(OC)c(OC)c1,i
CNc1cc(N2CCN(S(=O)(=O)c3ccccc3)CC2)ccc1[N+](=O)[O-],i
COC(=O)COc1ccc2c(=O)c(Oc3cnn(-c4ccccc4)c3)c(C(F)(F)F)oc2c1C,i
Cc1cc(/C=C(/C#N)c2nc3ccccc3[nH]2)c(C)n1NC(=O)c1ccccc1,i
Cc1c(NC(=S)NC(=O)c2ccccc2I)cccc1C(=O)O,i
CCOC(=O)C1=C(CN2CCOCC2)NC(=O)NC1c1ccc(Cl)cc1 (stereo not drawn),i
COc1ccccc1N1CCN(S(=O)(=O)c2ccc3c(c2)oc(=O)n3C)CC1,2.4%
Cc1ccccc1C(=O)N1CCN(c2ccc(NC(=O)COc3ccc(Br)cc3)cc2)CC1,i
N#Cc1ccc(CSc2nc3sc4c(c3c(=O)n2-c2ccc(Cl)cc2)CCC4)cc1,i
CCn1cc(C(=O)O)c(=O)c2cc(F)c(N3CCN(C(=S)NC)CC3)cc21,11.8µg/mL*
COC(=O)c1ccccc1NC(=O)c1cnn2c(C(F)(F)F)cc(-c3ccco3)nc12,i
CCCCc1cc(=O)oc2cc(C)cc(OC(C)C(C)=O)c12 (stereo not drawn),i
Cc1ccc(CN(CC(N)=O)S(=O)(=O)c2ccc(Br)cc2)cc1,i
Cc1cc(NS(=O)(=O)c2ccc(NC(=O)COc3ccccc3Cl)cc2)no1,i
Cc1ccc(C(=O)N2CCN(S(=O)(=O)c3ccc(C)c([N+](=O)[O-])c3)C2)cc1,i
C=CCn1c(SCC(=O)Nc2cc(Cl)ccc2OC)nc2ccccc2c1=O,i
Cc1ccc(NC(=O)c2ccc(-c3cccc(C(F)(F)F)c3)o2)cc1,i
COc1ccc(NS(=O)(=O)C2CCS(=O)(=O)C2)cc1 (stereo not drawn),i
CN(C(=O)c1ccc(NC(=O)Cc2ccccc2)cc1)c1ccccc1,i
CCC(c1nc2ccccc2c(=O)n1-c1ccccc1OC)N1C(=O)c2ccccc2C1=O (stereo not drawn),i
COc1ccc(OC)c(NC(=O)C(=O)NCCCOC(C)C)c1,i
Cc1cccc(CN2CCN(Cc3cccc(F)c3)CC2)c1,i
COc1ccc(N2CCN(S(=O)(=O)c3c(C)cc(C)cc3C)CC2)cc1,i
CN(CC(=O)Nc1ccccc1Cl)S(=O)(=O)c1ccc(F)cc1,i
O=C(N1CCN(c2ccccc2F)CC1)N(c1ccccc1)c1ccccc1,1.8%
O=C(C1CCCC1)N1CCN(c2ccccc2)CC1,i
O=C(Nc1cccc([N+](=O)[O-])c1)c1ccc(Cl)cc1Cl,i
Cc1c(Cl)cccc1NC(=O)C1CC1,i
CCc1cc(C(=O)OC)c(NC(=S)Nc2cn(CC)nc2C(N)=O)s1,i
COc1ccc(S(=O)(=O)NCCSCc2c(Cl)cccc2Cl)cc1,i
O=C(Cc1ccccc1)Nc1cccc(N2CCCC2)c1,i
COc1ccccc1CC(=O)O/N=C(\N)c1cccc([N+](=O)[O-])c1,i
CCC1CCCCN1S(=O)(=O)c1ccc(NC(=O)c2cccs2)cc1 (stereo not drawn),i
COc1ccc([N+](=O)[O-])c2c1NC(c1ccncc1)C1CC=CC21 (stereo not drawn),9.8%
COC(=O)COc1c(Sc2ccc([N+](=O)[O-])cc2)c(C)nn1-c1ccccc1,i
COc1nc(S(=O)(=O)c2ccc(C)cc2)c(Cl)s1,i
CCOc1ccc(C(F)(F)F)cc1NS(=O)(=O)c1ccc2c(c1)n(C)c(=O)n2C,i
Cc1ccc(NC(=O)CN(Cc2ccc(F)cc2)S(=O)(=O)c2ccc(Cl)cc2)cc1C,i
CCCCC(CC)C(=O)NC(CC)CC (stereo not drawn),i
COc1ccccc1NC(=O)CN(c1ccc(Cl)cc1C)S(C)(=O)=O,i
COc1ccc(C(=O)Nc2ccc(C3(C#N)CCCC3)cc2)cc1OC,i
Cn1c(=O)n2ncnc2c2c3c(sc21)CCCC3,i
CCOc1ccccc1NC(=O)c1ccc(F)cc1,2.5%
Cc1c(C#N)c2ccccc2n1CC(=O)NCCc1c[nH]c2ccccc12,i
CCC(=O)NC(c1ccccc1OC)c1cc(Cl)c2cccnc2c1O (stereo not drawn),i
CCOC(=O)c1csc(Nc2ccccn2)n1,i
CCc1c(C)sc(NC(=S)N(C)Cc2cn(CC)nc2C)c1C(=O)OC,i
O=c1c(-c2ccc(Oc3ccccc3)cc2)[n+]([O-])c2ccccc2n1OCc1ccccn1,i
CN(CC(=O)NC1CCCCCC1)S(=O)(=O)c1ccc(F)cc1,i
Cc1ccc(NC(=S)NC2CC(C)(C)NC(C)(C)C2)cc1C,i
CCOC(=O)Nc1ccc(NC(=O)CCc2ccccc2)cc1,i
Cc1ccc(CC2CC(=O)N(Cc3ccco3)C2=O)cc1 (stereo not drawn),i

# 2 entries picked at random from those above, as already listed:
SMILES,Mtb growth
CCc1c(C)sc(NC(=S)N(C)Cc2cn(CC)nc2C)c1C(=O)OC,i
CCOC(=O)c1csc(Nc2ccccn2)n1,i

# Carrying on:
SMILES,Mtb growth
CC(C)(C)c1ccc(C(=O)NCCNC(=O)c2ccc(C(C)(C)C)cc2)cc1,i
CCCC1CCc2c(sc(NC(=O)c3cccnc3)c2C(N)=O)C1 (stereo not drawn),i
CC(C)(C)NC(=O)c1cccc(NC(=O)COc2ccc3ccccc3c2)c1,?
CC(C)C(NC(=O)c1ccco1)C(C)C,i
COC(C(=O)Nc1cc([N+](=O)[O-])ccc1C)c1ccccc1 (stereo not drawn),i
O=C(CSCc1ccc(Cl)cc1)N1CCN(c2ccccc2)CC1,1.3%
CCn1ccc(C(=O)Nc2ccc(C(=O)OC(C)C)cc2)n1,1.9%
O=C(COc1ccc(Cl)cc1Cl)N1CCN(C2=NS(=O)(=O)c3ccccc32)CC1,3.2%
Nn1c(CSc2ccccn2)nnc1CSc1ccccn1,0.8%
CC1(C)CC(=O)c2sc(NS(=O)(=O)c3ccc(Cl)cc3)nc2C1,i
O=C(NNC(=S)NCc1ccco1)C1c2ccccc2Oc2ccccc21,i
CC(C)C(CCC(=O)NC1CCCCC1)C(=O)O (stereo not drawn),i
CSc1nnc(-c2sc3ccccc3c2Cl)n1-c1ccccc1,i
CCC(C)NC(=O)c1ccccc1NS(=O)(=O)c1ccc(OC)c(OC)c1 (stereo not drawn),i
COc1ccc(S(=O)(=O)NCC(=O)Nc2ccc(OC)c(OC)c2)cc1,i
S=c1nc(-c2ccccc2)oc2c1CCc1ccccc1-2,i
O=C(Nc1ccc2c(c1)OCCO2)c1ccc(Oc2ccccc2)cc1,i
Cc1nn(-c2cc(N3CCN(S(=O)(=O)c4ccc(Cl)cc4)CC3)ccc2[N+](=O)[O-])c(=O)c2ccccc12,i
COc1cccc(CNC(=S)Nc2cc(OC)cc(OC)c2)c1,3.9%
Cc1ccc(-c2noc(CN(C(=O)COc3ccc(C)cc3Br)C(C)C)n2)cc1,i
Cc1ccc(OCc2nnc(SCC(=O)Nc3ccc(Br)cc3C(C)C)o2)cc1,i
COC(=O)c1ccc(NC(=O)c2cc(-c3ccc(C)o3)nc3ccccc23)cc1,i
O=C(NCc1ccco1)c1cc(F)c(F)cc1Cl,i
Cc1ccc(NC(=O)c2cnn3c(C(F)F)cc(-c4ccccc4)nc23)c(Br)c1,1.6%
COCc1nc(-c2cc(Br)ccc2OC)no1,i
CCNc1nc(NCc2ccccc2)nc(SCC(=O)Nc2ccccc2)n1,i
Cc1ccc(C)c(C(=O)N2CCN(c3ccccc3F)CC2)c1,0.7%
O=C(CSc1nc2c(c(C(F)(F)F)n1)CCc1ccccc1-2)NCc1ccc2c(c1)OCO2,i
COc1c(Cl)ccc(Cl)c1C(=O)Nc1ccc(F)cc1,i
CCOCC(=O)N1CCN(Cc2ccccc2)CC1,i
c1ccc(CNCCOCCOc2ccccc2)cc1,i
CCOc1ccc(S(=O)(=O)O)c(C)c1,i
O=C(COc1ccc(Br)cc1)N1CCN(c2ccc(F)cc2)CC1,i
O=C(c1cn(CC(=O)N2CCOCC2)c2ccccc12)C1CC1,11.9%
Cc1cc(C)cc(N2C(=O)CC(SCC(=O)Nc3ccc(Br)cc3)C2=O)c1 (stereo not drawn),i
Fc1ccc(NC(=S)NCC(c2ccccc2)c2ccccc2)cc1,i
CC(C)CNC(=O)c1ccccc1NC(=O)CN(c1cccc(Br)c1)S(C)(=O)=O,i
O=C(Nc1ccc(S(=O)(=O)N2CCCCC2)cc1)C1CC1,4.8%
COCc1nc2ccccc2n1CCC(C)C,i
COc1ccc(-c2csc3ncn(-c4ccccc4)c(=O)c23)cc1OC,i
CCOc1cccc(C(=O)Nc2nc3cc(Cl)c(C)cc3s2)c1,i
Cc1onc(-c2ccccc2)c1C(=O)NCc1cccs1,i
Cc1ccc(S(=O)(=O)c2nc(SCC(=O)N3CCOCC3)sc2Cl)cc1,1.4%
CS(=O)(=O)NC(c1ccccc1)c1ccccc1,i
CC(=O)Nc1cccc(OC(=O)c2ccoc2C)c1,i

# Sorted by molecular weight (descending): part of the list above
SMILES,Mtb growth
CC(C)CNC(=O)c1ccccc1NC(=O)CN(c1cccc(Br)c1)S(C)(=O)=O,i
O=C(CSc1nc2c(c(C(F)(F)F)n1)CCc1ccccc1-2)NCc1ccc2c(c1)OCO2,i
Cc1cc(C)cc(N2C(=O)CC(SCC(=O)Nc3ccc(Br)cc3)C2=O)c1 (stereo not drawn),i
CCNc1nc(NCc2ccccc2)nc(SCC(=O)Nc2ccccc2)n1,i
O=C(COc1ccc(Br)cc1)N1CCN(c2ccc(F)cc2)CC1,i
COc1ccc(-c2csc3ncn(-c4ccccc4)c(=O)c23)cc1OC,i
Fc1ccc(NC(=S)NCC(c2ccccc2)c2ccccc2)cc1,i
CCOc1cccc(C(=O)Nc2nc3cc(Cl)c(C)cc3s2)c1,i
COc1c(Cl)ccc(Cl)c1C(=O)Nc1ccc(F)cc1,i
O=C(c1cn(CC(=O)N2CCOCC2)c2ccccc12)C1CC1,11.9%
O=C(Nc1ccc(S(=O)(=O)N2CCCCC2)cc1)C1CC1,4.8%
COCc1nc(-c2cc(Br)ccc2OC)no1,i
c1ccc(CNCCOCCOc2ccccc2)cc1,i
CCOCC(=O)N1CCN(Cc2ccccc2)CC1,i
CS(=O)(=O)NC(c1ccccc1)c1ccccc1,i
CC(=O)Nc1cccc(OC(=O)c2ccoc2C)c1,i
COCc1nc2ccccc2n1CCC(C)C,i
CCOc1ccc(S(=O)(=O)O)c(C)c1,i

# The results go on.
SMILES,Mtb growth
CCOc1ccc(C(C)NC(=O)c2ccc(Br)s2)cc1 (stereo not drawn),i
CC1=Nc2ccccc2NC(=O)C1Sc1nnc(C)s1 (stereo not drawn),i
CC(=O)Nc1ccc(S(=O)(=O)Nc2nc(N)n(-c3ccccc3)n2)cc1,i
CC(C)Oc1ccc(NC(=O)COc2cccc(Cl)c2)cc1,i
COc1ccc(CCNC(=O)c2cccc([N+](=O)[O-])c2)cc1OC,i
COc1cc2ccccc2cc1C(=O)NC(=S)Nc1cccc(-c2nc3cc(C)ccc3o2)c1,i
COc1ccc(NC(=O)NNC(=O)C2(C)CC2(Cl)Cl)cc1OC (stereo not drawn),i
O=C(c1cccc(Cl)c1)N1CCN(C(=O)c2cccc3ccccc23)CC1,i
COc1cccc(NC(=O)C(C)NS(=O)(=O)c2ccc(Cl)cc2)c1 (stereo not drawn),i
O=C1CCC(=O)N1CCC(c1ccccc1)c1ccco1 (stereo not drawn),i
O=C(CC12CC3CC(CC(C3)C1)C2)NCc1cccnc1,i
CNC(=S)N1N=C(c2ccccc2)CC1c1ccc(OC)c(OC)c1 (stereo not drawn),i
CCN(CC)CCCNS(=O)(=O)c1ccc(OC)cc1,i
CC(=O)c1c(C(C)=O)c(C)n(Cc2ccccc2)c1C,i
CC(=O)Nc1ccc(N2C(=O)CC(Sc3nc(C)cc(C)n3)C2=O)cc1 (stereo not drawn),i
CC1(C)C2CCC1(CS(=O)(=O)O)C(=O)C2=O (stereo not drawn),i
Cc1ccc(S(=O)(=O)c2nc(SCC(=O)N3CCCCC3)sc2Cl)cc1,i
Cc1nc2cc(NC(=O)Nc3nccs3)ccc2n1C,i
Cc1ccc(C)c(NC(=O)Cn2cc(C(=O)C3CC3)c3ccccc32)c1,1.4%
Cc1ccc(C(=O)N2CCN(c3ccc(NC(=O)C(c4ccccc4)c4ccccc4)cc3)CC2)cc1,i
CCOC(=O)C1CCN(C(=O)CN(c2ccc(C(C)C)cc2)S(C)(=O)=O)CC1,i
O=C1CC2C(=O)NCCN2C(=NC(=O)c2ccc(Cl)cc2)N1 (stereo not drawn),i
Cc1cccc(-n2c(N)cc(=O)nc2SCC(=O)Nc2ccc(Br)cn2)c1,i
COc1cc(C(=S)N2CCCC2)ccc1OS(=O)(=O)c1ccc(Br)cc1,i
Cc1oc2c(C)c(OC(=O)C(C)C)ccc2c(=O)c1-c1nc2ccccc2s1,i
O=C(Nc1ccc(Br)cc1)c1ccc(NC(=O)C(c2ccccc2)c2ccccc2)cc1,i
O=C(CSc1nnc(Cc2ccccc2)o1)Nc1nccs1,?
Cc1cccc(S(=O)(=O)Nc2ccc(-c3csc(C)n3)cc2)c1,i
COc1cc(S(=O)(=O)N2CCN(c3ccccc3F)CC2)c(C)cc1C,i
O=C(Nc1ccccc1C(=O)NCCN1CCOCC1)c1ccco1,i
COC(=O)c1ccccc1SNc1ccccc1,5.3%
Cc1nnc(NC(=O)c2csc3c2CCCC3)s1,1.4%
Cc1ccc(S(=O)(=O)N2CCN(C(=O)c3cccnc3)CC2)cc1,i

# Not all compounds are listed. The share of hits here may be higher or lower than overall.
